Resorufin fluor: compounds fluorescent in resorufin spectral region; actives 0.04% (n = 59,000); max dye-equivalent concentration, M; AID 588; Compound fluorescence, resorufin region 547/598 nm, buffer; stronger effect = higher value; active = above 10 nM dye equivalent; inconclusive = 1 to 10 nM; inactive = 1 nM or less; a few of its hits are not listed in these tables; also: highest value over a series up to 38 µM
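Compounds in 100 mM Tris, pH 8.0, incubated 15 min at room temperature, then fluorescence read at 547 nm excitation/598 nm emission. Signal converted to dye-equivalent concentration via an on-plate six-point resorufin standard curve, per compound concentration.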
A488 autofl: compound fluoresces in the A488 spectral region; actives 0.1% (n = 59,000); compound autofluorescence, A488 spectral region, dye equivalency; stronger effect = higher value; max dye equivalency, M; active = above 10 nM dye equivalent; inconclusive = 1 to 10 nM; inactive = 1 nM or less; about half of its hits are not listed in these tables;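 also: highest value over a series up to 38 µM; compound alone in buffer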
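Compound autofluorescence was read in 100 mM Tris pH 8.0 after 15 min at room temperature, ex 480 nm/em 540 nm. Intensities were converted to A488 dye-equivalent concentration using an on-plate six-point A488 standard curve.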
AID923: qHTS Assay for Allosteric/Competitive Inhibitors of Caspase-1: Spectroscopic Profiling in AFC Spectral Region | compound fluorescence, AFC spectral region (405/520 nm); almost no hit is shown here | Potency, µM (doses to about 57.5 µM), inactives show at the highest dose fluorescence increase, hits mostly activators | actives 1.1% (n = 75,000); active = well fitted activation curve with a large enough effect; inconclusive = small, poorly fitted or top-dose-only effect;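 also: potency is read from the fitted curve at half-maximal effect; 0% is about no effect; scaled to a free AFC standard on each plate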
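Titrations up to 57 uM read every 20 sec for 3 min (405/520 nm) with 50 nM caspase 1 and 5 uM Ac-WEHD-AFC, pH 7.5 HEPES buffer. Fluorescence-vs-time intercept gave baseline, scaled against on-plate AFC standard.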
TSHR agonist: agonists of human thyroid stimulating hormone receptor | P16473 | HEK293-CNG-TSHR cells (CNG channel as cAMP sensor), membrane potential dye, cAMP | Potency, µM (highest dose often 57.1 µM), inactives show at the highest dose activation, most hits filed as activators | actives 0.48% (n = 73,000); active = well fitted activation curve of enough size with the parental cells flat; inconclusive = any curve in the parental cells; inactive = parental cells flat and receptor cells flat or falling; also: potency is read from the fitted curve at half-maximal effect; % of control where 0% means no effect; weak receptor curves with flat parental cells got no call and are not listed
Target sequence (P16473 whole entry, looked up): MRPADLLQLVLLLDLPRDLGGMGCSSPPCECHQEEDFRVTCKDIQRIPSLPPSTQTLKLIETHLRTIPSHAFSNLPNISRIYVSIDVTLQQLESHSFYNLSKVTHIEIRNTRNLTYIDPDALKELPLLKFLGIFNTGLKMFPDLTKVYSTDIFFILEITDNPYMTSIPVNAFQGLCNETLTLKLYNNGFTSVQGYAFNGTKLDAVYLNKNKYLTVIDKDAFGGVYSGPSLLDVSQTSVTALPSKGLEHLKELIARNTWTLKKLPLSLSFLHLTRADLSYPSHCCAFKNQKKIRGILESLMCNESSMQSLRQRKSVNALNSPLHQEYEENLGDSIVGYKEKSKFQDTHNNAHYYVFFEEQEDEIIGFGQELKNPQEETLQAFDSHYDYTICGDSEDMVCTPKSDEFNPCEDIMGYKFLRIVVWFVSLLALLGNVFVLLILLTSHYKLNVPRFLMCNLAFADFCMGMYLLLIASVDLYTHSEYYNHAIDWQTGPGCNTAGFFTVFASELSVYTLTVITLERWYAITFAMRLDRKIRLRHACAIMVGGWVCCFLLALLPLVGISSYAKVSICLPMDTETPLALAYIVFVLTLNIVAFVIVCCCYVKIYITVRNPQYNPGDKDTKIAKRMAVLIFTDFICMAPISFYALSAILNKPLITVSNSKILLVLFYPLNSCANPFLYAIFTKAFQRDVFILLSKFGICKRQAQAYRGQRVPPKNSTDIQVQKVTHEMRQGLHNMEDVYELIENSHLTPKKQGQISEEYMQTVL
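HEK 293 cells stably expressing TSHR and a cAMP-gated CNG channel; parental CNG-only cells as counterscreen. Cells preloaded 60 min with membrane potential dye plus 100 uM RO 20-1724, then compound 30 min; fluorescence read at 590 nm.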
A647 fluor: compound fluoresces in the A647 spectral region. max dye-equivalent concentration, M. 59,000 tested, under 10 active. Compound fluorescence, A647 channel (570/671 nm), Tris buffer. AID 592; active means above 1 µM dye equivalent; inconclusive means 0.1 to 1 µM; inactive means 0.1 µM or less;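 also: values scaled relative to a standard on each plate; highest value over a series up to 38 µM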
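Each compound's intrinsic fluorescence at 570 nm excitation and 671 nm emission is measured across its concentration series in 100 mM Tris, pH 8.0, after 15 min at room temperature, and reported relative to an A647 curve.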
The depositor's hits bear a star; i = inactive; ? = inconclusive; / = not tested or not shown; [ ] = dose if it differs, or a comment. This is a subset; rates above refer to the full screens.

molecule | Resorufin fluor | AID923 | A647 fluor | TSHR agonist | A488 autofl
CC(C)COc1ccc(/C(O)=C2/C(=O)C(=O)N(CCN(C)C)C2c2ccncc2)cc1 (stereo not drawn) | i | 0.5% | 3.6e-08 | 1% | i
COC(=O)c1ccc(S(=O)(=O)N2C3CCC2CC(NC(=O)NC2CCCCC2)C3)cc1 (stereo not drawn) | i | 0.0% | 7.7e-09 | -9% | i
c1ccc(Cn2nnnc2C(c2cccs2)N2CCc3ccccc3C2)cc1 (stereo not drawn) | i | 1.3% | 3.2e-09 | ? | i
Cc1ccccc1OCC(=O)OC(C)CN1CCN(C)CC1 (stereo not drawn) | i | 0.3% | 1.8e-08 | 0% | i
COc1ccc(CNc2ccnc(-c3ccccc3OC)n2)c(OC)c1 | i | 2.3% | 2.1e-09 | / | i
N#Cc1ccccc1NC(=O)CSc1nnc(-c2ccccc2)n1-c1ccccc1 | i | -3.0% | 1.7e-08 | 16% | i
Clc1ccc2nc(N3CCCCC3)sc2c1 | i | -0.9% | 3.9e-08 | 7% | i
COC(=O)c1ccc(C(NC(=O)OCc2ccccc2)/C(F)=C/[C@@H](C)C(=O)NCCc2c[nH]c3ccc(OC)cc23)cc1 (stereo partly drawn) | / | 2.2% | / | ? | /
O=C(O)CCCC(=O)NCc1ccccn1 | i | -2.1% | 1.9e-08 | -2% | i
Cc1cccc(C(=O)O)c1 | / | 1.6% | / | -4% | /
O=C(c1ccc(S(=O)(=O)N2CCOCC2)cc1)N1CCc2ccccc2C1 | i | 0.6% | 4.2e-08 | 13% | i
Cc1noc(C)c1-c1nccc(NCc2cccnc2)n1 | i | 0.3% | 1e-09 | -1% | i
COC(=O)c1cccc(S(=O)(=O)N2CCC(C)CC2)c1 | i | -1.8% | 4.9e-08 | 4% | i
Cn1c(SCC(=O)NCC2CCCO2)nnc1-c1ccc(S(=O)(=O)N2CCCC2)cc1 (stereo not drawn) | i | -2.6% | 1e-09 | -5% | i
CCOC(=O)C(CCCOc1cccc(OC)c1)C(=O)OCC | / | -0.7% | / | ? | /
Cn1c(SCC(=O)NCc2ccc3c(c2)OCO3)nc2scc(-c3cccs3)c2c1=O | i | 2.8% | 2.4e-08 | ? | i
CCOC(=O)C1CCN(S(=O)(=O)Cc2ccccc2)CC1 | / | 2.4% | / | -6% | /
CC1(C)CC(=O)C(C=NCc2cccnc2)=C(O)C1 | / | 0.0% | / | -9% | /
Cc1ccc(OCc2nc(C#N)c(N3CCN(Cc4ccccc4)CC3)o2)cc1 | i | -0.1% | 1.9e-09 | ? | i
COC(=O)c1cc(NCc2ccc3c(c2)OCO3)ccc1N1CCOCC1 | i | 2.4% | 4.8e-08 | -12% | i
CC(C)N(C(=O)COC(=O)c1ccc(O)cc1)C(C)C | i | -1.5% | 1.9e-08 | -4% | i
COc1ccc(OC)c(S(=O)(=O)Nc2cc(Cl)cc(Cl)c2)c1 | i | -3.2% | 1e-09 | -6% | i
COCc1nnc(NC(=O)c2cc(Cl)ccc2OC)s1 | i | -1.1% | 1e-09 | -4% | i
C=C(C)CN(CC)c1nc(N)c(C#N)c(CC#N)c1C#N | i | 7.3% | 1e-09 | 15% | i
COc1ccc(CN(C(=O)c2ccco2)C2CC(C)N(C)CC2C)cc1 (stereo not drawn) | i | 0.3% | 1e-09 | 8% | i
Cc1cc(C)cc(N(CC(=O)NC2CC3CCC2C3)S(C)(=O)=O)c1 (stereo not drawn) | / | -0.1% | / | 18% | /
CCC(Sc1nc(N)cc(=O)[nH]1)C(=O)NC(C(=O)OC)c1ccccc1 (stereo not drawn) | i | -2.0% | 7.7e-09 | ? | i
O=C(CCSc1nnc(-c2ccco2)o1)Nc1ccccc1 | i | 0.5% | 1e-09 | 3% | i
Cc1ccc(/C(COc2ccccc2O)=N\O)cc1 | i | -2.2% | 1.9e-09 | -5% | i
Cc1ccc(Cl)cc1-n1c(=O)cc(N2CC(C)OC(C)C2)[nH]c1=O (stereo not drawn) | i | -0.5% | 1e-09 | 18% | i
CCOc1ccc(Cl)cc1S(=O)(=O)N1CCCC1 | i | -1.7% | 5.7e-09 | ? | i
O=C(Nc1ccccn1)c1ccc(NC(=O)c2ccco2)cc1 | i | 1.3% | 2.5e-08 | 10% | i
CC(SC1CCCC1)C(=O)Nc1ccnn1C(C)C (stereo not drawn) | i | -0.8% | 5.5e-09 | 3% | i
CC(=O)SC[C@@H](Cc1ccccc1)C(=O)NCC(=O)OCc1ccccc1 | i | 0.6%[25.7 µM] | 2.1e-08 | -3%[25.6 µM] | i
Cc1ccc(C)c(-n2nnnc2SCC(=O)c2ccc3c(c2)NC(=O)CO3)c1 | i | 0.8% | 2.4e-08 | ? | i
O=C(Nc1ccc(-c2nc3cccnc3s2)cc1)c1ccco1 | / | 4.1% | / | ? | /
Cc1ccn2cc(CNC(=O)c3ccc(Br)o3)nc2c1 | / | -1.6% | / | ? | /
CCSc1nnc(NC(=O)C2Cc3ccccc3CN2C(=O)c2ccco2)s1 (stereo not drawn) | i | 1.1% | 2.3e-08 | -4% | i
CCOc1cccc(CN2CCN(c3cccc(C(F)(F)F)c3)CC2)c1O | i | 0.7% | 3.2e-09 | 10% | i
COc1ccc(CNc2oc(Cc3cccc4ccccc34)nc2C#N)cc1 | i | 2.6% | 1.2e-09 | 19% | i

Grouped by structure, those above containing a Cl atom
molecule | Resorufin fluor | AID923 | A647 fluor | TSHR agonist | A488 autofl
Clc1ccc2nc(N3CCCCC3)sc2c1 | i | -0.9% | 3.9e-08 | 7% | i
COc1ccc(OC)c(S(=O)(=O)Nc2cc(Cl)cc(Cl)c2)c1 | i | -3.2% | 1e-09 | -6% | i
COCc1nnc(NC(=O)c2cc(Cl)ccc2OC)s1 | i | -1.1% | 1e-09 | -4% | i
Cc1ccc(Cl)cc1-n1c(=O)cc(N2CC(C)OC(C)C2)[nH]c1=O (stereo not drawn) | i | -0.5% | 1e-09 | 18% | i
CCOc1ccc(Cl)cc1S(=O)(=O)N1CCCC1 | i | -1.7% | 5.7e-09 | ? | i

A few values from the entries so far:
Reading for `CCOC(=O)C(CCCOc1cccc(OC)c1)C(=O)OCC` in AID923: -0.7%
Reading for `O=C(Nc1ccc(-c2nc3cccnc3s2)cc1)c1ccco1` in AID923: 4.1%

(list continues)
molecule | Resorufin fluor | AID923 | A647 fluor | TSHR agonist | A488 autofl
CNc1nc(-c2cccc(NS(C)(=O)=O)c2)nc2ccccc12 | i | 0.7% | 3.3e-08 | -1% | i
COc1ccc(OC)c(-c2oc3ccccc3c(=O)c2O)c1 | i | 6.7% | 2.9e-08 | / | i
Cc1nc(C)c(C(=O)C2=C(O)C(=O)N(CCN3CCOCC3)C2c2cccnc2)s1 (stereo not drawn) | i | 2.4% | 1e-09 | -4% | i
Cc1cc(C)n(-c2cc(=O)n(C)c(=O)n2C)n1 | i | -0.4% | 1e-09 | 5% | i
COc1cc(CN(C)CCc2ccccn2)cc(OC)c1OC | i | 1.2% | 1e-09 | 20% | i
CC(=O)O[C@H](CC(=O)O)C[N+](C)(C)C | / | -3.0% | / | 7% | /
CCC(C)(C)n1nnnc1C(c1ccc2ncccc2c1)N1CCN2CCCC2C1 (stereo not drawn) | i | 5.2% | 2.3e-09 | ? | i
O=C(N1CCCCC1)N1CCN(c2ccc(Cl)cc2)CC1 | i | -0.3% | 1e-09 | -4% | i
COc1ccc2c(c1)Cc1sc(NC(C)=O)nc1-2 | i | -1.3% | 4e-09 | -11% | i
COCC(=O)N1CCC2(CC1)CCN(c1ncccn1)CC2 | i | 3.5% | 1e-09 | 0% | i
O=C1c2ccccc2C(=O)N1CC#CCN1CCN(C2CCCCC2)CC1 | i | 3.5% | 9.4e-09 | ? | i
CCCCn1nnnc1NCc1cccnc1 | i | 1.5% | 1.6e-09 | -12% | i
COc1cc(OC)cc(C(=O)N(Cc2nc(-c3cccc(C)c3)no2)C(C)C)c1 | i | 1.6% | 4.3e-09 | ? | i
COc1ccccc1C(=O)N1CCCC(c2nc(-c3cc(OC)c(OC)c(OC)c3)no2)C1 (stereo not drawn) | i | -0.2% | 1.3e-08 | ? | i
CCOC(=O)CCc1c(C)c2ccc(OCc3nn[nH]n3)c(C)c2oc1=O | i | 3.3% | 1e-09 | 3% | i
CCC(Oc1ccccc1)C(=O)N1CCN(c2ccccn2)CC1 (stereo not drawn) | i | 0.5% | 4.6e-08 | / | i
Cc1oc2c(CN3CCCC3)c(O)ccc2c(=O)c1-c1ccc(Cl)cc1 | i | -0.4% | 1.4e-08 | 1% | i
NC(=O)c1c(NC(=O)c2cc3ccccc3o2)sc2c1CCC2 | i | 9.6% | 3.7e-09 | -10% | i
COc1cccc(C(=O)NCc2nnc(SCC(=O)Nc3nccs3)n2-c2ccccc2)c1 | / | -0.9% | / | 0% | /
C#CCN1CC(C)/C(=N/O)CC1C (stereo not drawn) | i | -0.3% | 1e-09 | / | i
O=C(CN1CCC(C(=O)c2ccc(Cl)cc2)CC1)Nc1ccc2c(c1)OCCO2 | i | 0.6% | 3.2e-09 | ? | i
O=C(Nc1nn[nH]n1)c1nc(-c2ccccc2)cc(=O)[nH]1 | i | -1.7%[11.5 µM] | 8e-09 | 1%[11.4 µM] | i
C/C=C/c1ccc(Oc2nnnn2-c2ccc(C(=O)O)cc2)c(OC)c1 | i | 1.7% | 4.3e-08 | / | i
COc1cccc2cc(C(=O)C3=C(O)C(=O)N(CCN4CCOCC4)C3c3cccs3)oc12 (stereo not drawn) | i | 0.5% | 1e-09 | -8% | i
O=c1cc(-c2ccccc2O)oc2c(O)c(O)ccc12 | i | -2.7% | 1e-09 | -6% | i
CCOC(=O)N1CCN(C(=O)c2cn(CC(C)C)c(=O)c3c2c2ccccc2n3C)CC1 | i | -0.2% | 1e-09 | 1% | i
O=C(NCCC[N+]1=CC=N[C@H]1c1ccccc1)N1CCCc2nc(-c3ccc(Br)cc3)ccc21 | / | 0.2%[11.5 µM] | / | 11%[11.4 µM] | /
CC(C)c1ccc(C(=O)N2CCN(CCO)CC2)cc1 | i | -1.5% | 3.3e-08 | 2% | i
CC1CN(C(=O)c2cc(S(=O)(=O)N3CCCC3)c(Cl)cc2Cl)CC(C)O1 (stereo not drawn) | i | -0.8% | 1.6e-09 | 7% | i
CN(CP(=O)(O)C(O)c1ccccc1)S(C)(=O)=O (stereo not drawn) | / | 2.5% | / | -2% | /
O=C(CSc1nc(N2CCCCC2)nc(N2CCCCC2)n1)N1CCN(c2ccccc2)CC1 | i | 0.5% | 2.1e-08 | -2% | i
O=C(NCc1ccc(F)cc1)N[C@@H](Cc1ccccc1)C(=O)O | i | 0.7% | 2.1e-08 | 7% | i
O=c1c2ccccc2n2nnnc2n1-c1ccccc1 | i | 0.2% | 4.3e-08 | 1% | i
O=C(O)CSCC(=O)Nc1cccc2ccccc12 | i | 0.2% | 1e-09 | ? | i
O=S(=O)(c1ccccc1)N(C1=NCCS1)S(=O)(=O)c1ccccc1 | i | -2.3% | 2.6e-09 | 14% | i
O=C(CCCn1c(=O)[nH]c2cc(Cl)ccc2c1=O)NCCCN1CCCC1=O | i | -0.6% | 1e-09 | 3%[11.4 µM] | i
Cc1oc(C(=O)O)cc1COc1ccc2c(C)cc(=O)oc2c1 | i | -0.7% | 2.3e-09 | 4% | i
CCN(CC)S(=O)(=O)c1cccc(-c2nnc(SCc3nnc(-c4cccs4)o3)n2N)c1 | i | 0.8% | 4.8e-09 | 1% | i
Cc1ccc(S(=O)(=O)c2nc(-c3ccccc3)oc2NCc2cccnc2)cc1 | i | -3.2% | 1e-09 | 9% | i
CCOC(=O)C1=C(C)NC(=O)NC1c1cc(Br)c(O)c(OC)c1 (stereo not drawn) | i | -2.4% | 7e-09 | -6% | i

Screens from PubChem.
